AF4-AF9 inh: inhibitors of AF4 peptide binding to AF9, primary screen, biochemical, AlphaScreen, biotin-AF4 peptide, FLAG-AF9, single point; inhibition, % at 10 µM; 0.47% of 350,000 active; Protein AF-9 (Homo sapiens), P42568;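 active means every replicate reaching a set inhibition limit, whatever the replicate mean, cut at about 25% in these data; inconclusive means mean inhibition reaches that limit but some replicates miss it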;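 further: 0% = plate neutral control median and 100% = total signal loss; the record names both 10 and 1 µM as test concentration; the first replicate is given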
Ecoli growth: E. coli growth inhibition, primary screen, OD600 | Escherichia coli growth, 23 h; stronger effect = lower value | OD600 absorbance (no concentration beside the values) | 0.21% of 330,000 active | AID 1053175, 2014;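 active means OD600 absorbance below the run mean of sample wells minus 3.6 SD, in any replicate, cut at about 0.56 in these data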;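 further: stock transfer was 300 nL into about 60 µL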
ALR inh: inhibitors of human ALR sulfhydryl oxidase, primary screen, biochemical, H2O2 detection, HRP-luminol luminescence, single point; FAD-linked sulfhydryl oxidase ALR (Homo sapiens), P55789; inhibition, % (no concentration beside the values); purified ALR, DTT oxidation; AID 485317, 2010; 3.8% of 290,000 active;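 active means mean and each replicate at 75% or more; inconclusive means only one of the two met; inactive means neither met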;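 further: stock transfer was 7.5 nL into about 7.5 µL; 0% = neutral wells and 100% = wells with inactivated enzyme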
Target sequence (P55789 whole entry, looked up): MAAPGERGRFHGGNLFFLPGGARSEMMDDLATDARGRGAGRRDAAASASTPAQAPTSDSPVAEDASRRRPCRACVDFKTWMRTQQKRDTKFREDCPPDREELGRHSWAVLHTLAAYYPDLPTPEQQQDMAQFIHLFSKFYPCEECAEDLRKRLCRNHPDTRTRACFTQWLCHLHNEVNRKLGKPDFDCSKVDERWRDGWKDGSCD
rRNA inh HTS: reduced GFP signal of wild-type E. coli, primary screen, bacterial rRNA inhibitor project, GFP/RFP fluorescence, OD600, single point; E. coli WT GFP vs humanized-ribosome RFP mutants, 24 h; stronger effect = lower value; DMSO median 0, no signal -100; GFP signal change (wild-type ribosome), % (concentration not given with the values); 1.6% of 350,000 active; AID 720706, 2013;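 active means significant combined selectivity score with lowered wild-type GFP, culture density cut under 30%, mutant RFP and density less affected; inactive means any of these conditions unmet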; further: one replicate is shown; some compounds called inactive have numbers as strong as hits
HNF4A DNA FP: change in binding of human HNF4A to DNA, primary screen, biochemical, fluorescence polarization, FITC-DNA; AID 1224865, 2016; 1 h; activity change, % at 10 µM; 0.3% of 360,000 active; in the data active means activity change above about 30%, passing the limit was not always enough;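 further: controls were the assay level and a saturating level of protein; the project sought stronger binding though the title names inhibitors; some compounds called inactive have numbers as strong as hits; positive values seem to mean higher polarization but the record does not say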
Target sequence (P41235 whole entry, looked up): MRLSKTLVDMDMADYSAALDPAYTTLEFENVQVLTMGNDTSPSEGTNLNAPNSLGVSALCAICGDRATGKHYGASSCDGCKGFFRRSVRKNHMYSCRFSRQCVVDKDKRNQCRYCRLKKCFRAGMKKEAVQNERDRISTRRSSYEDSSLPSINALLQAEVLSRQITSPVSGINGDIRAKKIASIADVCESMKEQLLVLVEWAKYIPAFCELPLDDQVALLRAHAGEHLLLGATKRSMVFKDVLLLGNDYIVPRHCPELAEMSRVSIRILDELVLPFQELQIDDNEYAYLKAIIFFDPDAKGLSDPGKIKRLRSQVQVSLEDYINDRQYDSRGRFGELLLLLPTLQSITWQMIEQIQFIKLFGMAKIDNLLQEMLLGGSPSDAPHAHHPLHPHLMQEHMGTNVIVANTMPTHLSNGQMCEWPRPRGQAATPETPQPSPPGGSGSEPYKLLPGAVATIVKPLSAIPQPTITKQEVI
Vif A3G: inhibitors of Vif binding to APOBEC3G peptide, primary screen, biochemical, TR-FRET, GST-Vif 1-94, biotin-A3G peptide, dose response retest (AID 1117319); 0.57% of 260,000 active; inhibition, %; hits with a dose series show IC50 in µM; Virion infectivity factor (Human immunodeficiency virus type 1 group M subtype B (isolate …; TR-FRET GST-Vif / biotin-A3G peptide binding; higher % means a stronger effect; test concentration not given here; strong numbers were not always called active;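 active means above the screen mean plus three standard deviations and confirmed in dose response; inconclusive means results disagree or hit not tested in dose response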;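 further: Vif residues 1-94 fused to GST binding biotinylated APOBEC3G peptide 110-148; 0% = full assay without inhibitor and 100% = GST in place of GST-Vif; retest series ran down from 100 µM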
FGF22 binding: binders of human FGF22 protein, primary screen, FGF22 synaptogenesis inhibitor project, biophysical, thermal shift, single point | Fibroblast growth factor 22 (Homo sapiens), Q9HCT0 | recombinant FGF22 thermal shift, SYPRO orange fluorescence; percent of sucrose octasulfate shift, DMSO zero | calls only at 9.99 µM | 1.5% of 340,000 active | AID 651658, 2012;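 active means melting point raised past a set limit in the mean and every replicate; inconclusive means no clear call; three in four hits are not shown here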
Target sequence (Q9HCT0 whole entry, looked up): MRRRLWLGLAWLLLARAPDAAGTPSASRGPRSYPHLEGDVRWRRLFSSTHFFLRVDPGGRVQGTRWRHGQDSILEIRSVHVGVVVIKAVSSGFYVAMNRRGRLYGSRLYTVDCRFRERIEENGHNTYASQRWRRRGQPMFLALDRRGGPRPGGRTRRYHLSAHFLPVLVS
rRNA inh HTS OD600: also measured in rRNA inh HTS; calls as there; OD600 change, %; measured here: OD600 growth;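 optical density of the mix in the first replicate; 0 = DMSO median and -100 = no signal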
rRNA inh HTS RFP: further read-out of rRNA inh HTS, marked with its call; RFP signal change, %; measured here: RFP humanized mutant strains;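 first replicate; 0 = DMSO median and -100 = no signal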
Numbers without * were called inactive; i = inactive; ? = inconclusive; · = no result given; & = joins results of further samples.

SMILES	AF4-AF9 inh	Ecoli growth	ALR inh	rRNA inh HTS	rRNA inh HTS OD600	rRNA inh HTS RFP	HNF4A DNA FP	Vif A3G	FGF22 binding
O=C1c2ccccc2C(=O)N1Cc1nc2ccccc2o1	·	0.78	-35	·	·	·	2.9	-5%	·
O=C(CSCc1ccccc1)NC1CCSC1=O (stereo not drawn)	·	0.7	2	·	·	·	-1.9	-1%	·
C[C@@H]1CN([C@@H](C)CO)C(=O)c2cc(C#CC3(O)CCCC3)cnc2O[C@@H]1CN(C)C(=O)CC1CC1	-2.7	·	·	1	5	-4.2	·	·	i
C[C@@H]1CCCCO[C@H](CN(C)S(=O)(=O)c2cccs2)[C@H](C)CN([C@@H](C)CO)C(=O)c2cc(NS(C)(=O)=O)ccc2O1	3.9	·	·	-3	-5	0.1	·	·	i
CC(SC(=S)N1CCCC1)C(=O)O (stereo not drawn)	-1.9	0.72	-13	12	15	2.9	-0.5	4%	i
COc1ccccc1N1CCN(C(c2ccc(C)cc2)c2nnnn2C(C)C)CC1 (stereo not drawn)	·	0.78	7	·	·	·	0.1	1%	·
COCC(=O)N1[C@H](CO)[C@H](c2ccccc2)[C@@H]1CNC(=O)c1ccccn1	-1.1	·	·	2	9	-2.7	·	·	i
COc1ccccc1OCC(=O)Nc1ccc2c(c1)n(C)c(=O)n2C	-5.2	0.67	-12	-4	-7	-4.5	1.5	-3%	i
COc1ccc(CN2CCC(=O)N([C@H](CO)c3ccccc3)CC2)cc1OC	3.4	·	-22	-2	2	-14	1.2	·	i
CN(CC1CCCO1)S(=O)(=O)c1ccc(C(=O)Nc2ccccc2F)cc1 (stereo not drawn)	-11	0.67	-7	-3	1	-0.6	0.3	0%	i
COc1ccc(S(N)(=O)=O)cc1C(=O)NCC1(N2CCCCC2)CCCCC1	·	0.69	-5	·	·	·	-2.8	2%	·
Cc1ccc(S(=O)(=O)N2CCCCC2)cc1NC(=O)CCN1C(=O)C2CC=CCC2C1=O (stereo not drawn)	1.3	0.7	-1	1	-1	0.1	0.2	-12%	i
Cc1ccc(CSc2nc3ccncc3[nH]2)cc1	-3.5	0.67	16	4	-7	-0.9	-5.1	-2%	i
COc1cc(OC)cc(C(=O)Nc2nc(-c3ccccc3)c(-c3ccccc3)o2)c1	-1.4	0.73	3	-22	-18	-0.3	3.0	-1%	i
Cn1c(COc2ccccc2Br)nc2ccccc21	3.3	0.67	-4	-28	-16	-3.2	-0.9	4%	i

Ordered by value in AF4-AF9 inh (falling): 4 of the compounds above
Molecule,AF4-AF9 inh
C[C@@H]1CN([C@@H](C)CO)C(=O)c2cc(C#CC3(O)CCCC3)cnc2O[C@@H]1CN(C)C(=O)CC1CC1,-2.7
Cc1ccc(CSc2nc3ccncc3[nH]2)cc1,-3.5
COc1ccccc1OCC(=O)Nc1ccc2c(c1)n(C)c(=O)n2C,-5.2
CN(CC1CCCO1)S(=O)(=O)c1ccc(C(=O)Nc2ccccc2F)cc1 (stereo not drawn),-11

(cont.)
SMILES	AF4-AF9 inh	Ecoli growth	ALR inh	rRNA inh HTS	rRNA inh HTS OD600	rRNA inh HTS RFP	HNF4A DNA FP	Vif A3G	FGF22 binding
Cc1cccc(NC(=O)CNC(=O)COC(=O)c2ccco2)c1C	-4.6	0.72	-2	2	13	-2.8	0.1	-6%	i
COc1ccc(CN(C(=O)c2cccs2)c2ccccc2C(=O)O)cc1	-0.1	0.67	-2	-4	-2	3.4	3.6	-13%	i
Nn1c(=S)[nH]nc(Cc2ccc(O)cc2)c1=O	-0.8	0.64	80*	3	4	1.3	-0.3	5%	i
CCN1CCN(C(c2ccccc2)c2sc3nc(C)nn3c2O)CC1 (stereo not drawn)	4.0	0.75	-10	9	14	0.0	1.8	·	i
O=C(NC1CCCCC1)c1cc(Cl)ccc1[N+](=O)[O-]	·	·	0	·	·	·	1.8	-3%	·
CCOC(=O)c1c(-c2ccc(C)cc2)csc1NC(=O)C1CCCO1 (stereo not drawn)	·	0.67	·	·	·	·	2.2	-14%	·
CC(=O)N1C[C@H]2CON(C)[C@H]2C[C@H]1c1ccccc1Br	-4.6	·	·	·	·	·	-4.5	2%	i
O=C(COC(=O)c1ccccc1SCC(=O)NC1CCS(=O)(=O)C1)NC1CCS(=O)(=O)C1 (stereo not drawn)	-3.1	0.72	-2	5	10	-0.7	-3.8	17%	i
CCOc1ccc(NS(=O)(=O)c2ccc(OCC(=O)NCCCOC)cc2)cc1	·	0.75	-8	·	·	·	-0.4	1%	·
COC(=O)CCCCCCCCC(O)CN(C)C (stereo not drawn)	2.9	0.7	·	9	4	-1.5	1.0	-7%	i
CN1CCN(C(=O)C[C@@H]2CC[C@H]3[C@@H](COC[C@@H](O)CN3C(=O)C3CC3)O2)CC1	-2.1	·	·	-1	-2	-4.1	·	·	i
O=C(COc1ccccc1)NC(=S)Nc1cccc2c(O)cccc12	5.5	·	·	-2	12	3.1	-0.3	7%	i
Cc1ccc(Cn2c(=N)c(C#N)cc3c(=O)n4cccc(C)c4nc32)cc1	·	0.72	-5	·	·	·	·	1%	·
CCOc1ccc(C(C)NC(=O)CN2C(=O)NC3(CCCCC3)C2=O)cc1OCC (stereo not drawn)	-0.6	0.71	-16	-1	3	-2.5	-2.1	·	i
COc1cc(C2C(C#N)=C(N)Oc3c2oc(CO)cc3=O)cc(OC)c1OC (stereo not drawn)	·	0.68	45	·	·	·	1.1	6%	·
Cc1cc(=O)[nH]c(SCc2nc3ccccc3s2)n1	·	0.69	60	·	·	·	4.1	?	·
CC(C)n1nc(C(=O)NC2CCCCCC2)c2ccccc2c1=O	-18	0.68	6	-7	-6	1.4	1.0	·	i
Cc1ccc2[nH]c(=O)c(CN(C(=O)c3cccs3)c3ccccc3)cc2c1	1.4	0.67	1	0	-1	-5.1	2.0	·	i
CN(c1ccc(F)cc1)S(=O)(=O)c1ccc(Cl)c(C(=O)Nc2ccc3c(c2)CCC3)c1	-2.8	0.66	-44	-6	-11	-12	7.2	·	i
CCC(CC)C(=O)N1CC(=O)Nc2ccc(Br)cc2C1c1ccccc1 (stereo not drawn)	2.7	0.71	-14	0	-4	4.8	-3.2	4%	i
O=C(Nc1ccccn1)c1cc(-c2cccnc2)nc2ccc(Br)cc12	-1.2	·	-6	21	9	-5.2	5.6	·	i
COc1ccccc1OCCNC(=O)c1ccc2c(c1)OCCO2	3.5	0.65	-9	-2	-8	-0.4	3.7	·	i
COC(=O)c1cc(NC(=O)Cn2c(=O)cnc3ccccc32)cc(C(=O)OC)c1	·	0.75	-3	·	·	·	5.6	-3%	·
COc1ccc(NC(=O)c2sc3nc(Cc4ccccc4)cc(C(F)(F)F)c3c2N)cc1OC	-168	0.72	-2	10	6	-2.8	3.2	·	i
CCOC(=O)C1=C(C)NC(SCC(=O)OC)=C(C#N)C1c1ccc(C(=O)OC)cc1 (stereo not drawn)	-1.4	0.7&0.66	-2	-14	-22	-4.9	2.2&-0.9	8%&-4%	i
CCCCNc1ccc2oc(-c3ccc(OC)cc3)c(-c3ccc(OC)c(F)c3)c2c1	-0.1	0.71	-4	4	-4	6.0	6.9	·	i
Cc1ccc(C)c(OCCCC(=O)N2CCOCC2)c1	0.5	0.68	-12	8	-6	-0.1	1.6	-1%	i
CN(C)CC(=O)N1[C@H](C#N)[C@H](c2ccc(C#CC3CCCC3)cc2)[C@H]1CO	4.4	·	·	0	-1	2.2	·	·	i
CCOc1ccccc1C(=O)NC(C(=O)NCCc1ccccn1)C(C)C (stereo not drawn)	8.9	0.64	2	2	3	2.0	-0.7	-2%	i
CSc1nc(Oc2ccc3ccccc3c2)c2ccccc2n1	·	0.79	-11	·	·	·	0.3	2%	·
Cc1ccc(CCNC(=O)NC(C)(C)C)cc1	·	0.72	-23	·	·	·	-0.6	-5%	·
S=C(NCc1cccnc1)Nc1ccc(Cl)cc1	·	0.69	-7	·	·	·	-1.1	2%	·
Cc1nc(C)c(C(=O)C2=C(O)C(=O)N(CCN(C)C)C2c2cccs2)s1 (stereo not drawn)	·	0.71	2	·	·	·	1.1	0%	·
O=C(Cc1ccc(S(=O)(=O)N2CCOCC2)s1)Nc1ccc(N2CCOCC2)cc1	10.0	0.64	12	6	6	-0.9	-1.8	10%	i
CC(C)(C)c1cc(C(=O)NNc2ccc(OC(F)(F)F)cc2)n(Cc2ccccc2)n1	-1.5	0.68	4	-2	3	-3.4	0.6	-3%	i
C[C@@H]1CN([C@H](C)CO)S(=O)(=O)c2ccc(C#C[C@@H](C)O)cc2O[C@@H]1CN(C)Cc1ccccc1	3.4	·	·	2	5	-1.5	·	·	i
CC(=O)c1c(C)oc2ccc(NS(=O)(=O)c3ccc(F)cc3C)cc12	-6.2	0.69	-28	2	0	-1.1	0.3	·	i
C(=C\c1ccccc1)/CN1CCN(C(c2cccs2)c2nnnn2Cc2ccccc2)CC1 (stereo not drawn)	5.0	·	·	-48	-73	-5.8	-0.8	·	i
CSc1nc(N)c2c(n1)N(C)C=NS2(=O)=O	-1.9	0.7	·	5	7	-2.0	-4.1	-8%	i
O=C(C[n+]1ccc(C(=O)N/N=C/c2ccc(Br)cc2)cc1)c1ccccc1	-100	·	29	2	20	-3.0	-1.2	10%	i
CCOC(=O)[C@@H]1[C@H]2COc3ccccc3[C@@H]2N2C(=O)N(c3ccc(OC)cc3)C(=O)[C@@]12C	-5.9	·	-6	7	8	7.0	0.5	·	i
Cc1ccc(-n2c(=O)c3c(c4cc(C)ccc4n3C)n(CC(=O)NCC3CCCO3)c2=O)cc1 (stereo not drawn)	-0.7	·	·	12	15	-0.4	-1.8	·	i
CO[C@@H]1CN(C)C(=O)c2ccc(NC(=O)c3cnccn3)cc2OC[C@@H](C)N(C(=O)C2CC2)C[C@H]1C	-1.3	·	·	2	1	0.2	·	·	i
Cc1sc2c3ccsc3ccc2[n+]1C	-18	0.68	56	14	9	0.1	4.0	-20%	i
CC(C)(C)n1nnnc1C(c1ccccc1F)N1CCN(C(=O)c2ccco2)CC1 (stereo not drawn)	-4.0	0.66	-1	-1	-12	-1.5	-1.0	·	i
CSc1ccccc1C(=O)Nc1cccc(C(C)O)c1 (stereo not drawn)	1.2	0.66	-5	-2	12	-1.6	-1.0	?	i
COc1ccc(-c2cc(COc3ccccc3)on2)cc1	-3.4	0.67	0	20	8	2.5	1.2	-5%	i
O=C1c2ccccc2C(=O)N1CCCc1nc(-c2ccncc2)no1	·	0.74	-2	·	·	·	3.8	-1%	·
CNc1cncc(-c2ccccc2CO)n1	-0.2	·	·	12	15	1.0	-2.1	·	i
Cc1ccc(N=CC2=C(O)CC(c3cccc(Cl)c3)CC2=O)cc1 (stereo not drawn)	-4.7	0.7	-18	·	·	·	0.2	-2%	i

Ordered by molecular weight (low to high): part of the list above.
SMILES	AF4-AF9 inh	Ecoli growth	ALR inh	rRNA inh HTS	rRNA inh HTS OD600	rRNA inh HTS RFP	HNF4A DNA FP	Vif A3G	FGF22 binding
COc1ccc(-c2cc(COc3ccccc3)on2)cc1	-3.4	0.67	0	20	8	2.5	1.2	-5%	i
Cc1ccc(N=CC2=C(O)CC(c3cccc(Cl)c3)CC2=O)cc1 (stereo not drawn)	-4.7	0.7	-18	·	·	·	0.2	-2%	i
CC(C)(C)n1nnnc1C(c1ccccc1F)N1CCN(C(=O)c2ccco2)CC1 (stereo not drawn)	-4.0	0.66	-1	-1	-12	-1.5	-1.0	·	i

These rows are one share of the data, so the mix of outcomes need not match the whole.
